TRPV1 PAM: enhances activation of the human vanilloid receptor TRPV1. AID 540277. potentiation, % at 8.33 µM. 0.02% of 320,000 active. Q8NER1. TRPV1-expressing cells, Fluo-8 calcium influx, capsaicin EC20 potentiation; host cell line not named in the record; control for the full effect not named in the record; active means potentiation above 80%; inconclusive means 30% to 80%; inactive means below 30%; note: 0% is about no effect
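Fluo-8 calcium influx in TRPV1-expressing cells, kinetic read (ex 480/em 520 nm). Compound added and read 3 min for agonist activity, followed by capsaicin at EC20 final and 2 min further read for enhancement.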
PINK1 modulator: modulators of PINK1 expression; PINK1 immunofluorescence, high-content cytometry, 24 h; AID 624263; Potency, µM (highest dose often 76.6 µM), for the others: at the top dose activation (PINK1 increase), usual class: activators; 0.2% of 410,000 active; active = well fitted activation curve with a large enough effect; inconclusive = small, poorly fitted or top-dose-only effect; inactive = flat fitted curve, though single readings scatter; cell line not stated here;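 note: potency is the fitted concentration of half-maximal effect; % of control where 0% means no effect; nearly all actives have a fitted effect of over 65% in size; a mitochondrial uncoupler was the plate control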
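Compound titrations (5 concentrations, 24 h) on a stable cell line; DMSO and CCCP controls. Endpoint: fixed-cell PINK1 immunofluorescence with mitochondrial, cell and nuclear markers, scanned by microplate cytometer.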
Six1-Eya2 inh: Six1/Eya2 interaction inhibition | Q15475+O00167 | AlphaScreen GST-Six1/His-Eya2 binding, biochemical; active compounds read low; control for the full effect not named in the record | activity change, % (test concentration not listed) | 0.56% of 360,000 active | AID 651725; in the data active = activity change below about -65%; inconclusive = about -30% to -65%; inactive = above about -30%; note: % is set by controls: 0 for no effect and ±100 for the full control effect
Target sequence (O00167 whole entry, looked up): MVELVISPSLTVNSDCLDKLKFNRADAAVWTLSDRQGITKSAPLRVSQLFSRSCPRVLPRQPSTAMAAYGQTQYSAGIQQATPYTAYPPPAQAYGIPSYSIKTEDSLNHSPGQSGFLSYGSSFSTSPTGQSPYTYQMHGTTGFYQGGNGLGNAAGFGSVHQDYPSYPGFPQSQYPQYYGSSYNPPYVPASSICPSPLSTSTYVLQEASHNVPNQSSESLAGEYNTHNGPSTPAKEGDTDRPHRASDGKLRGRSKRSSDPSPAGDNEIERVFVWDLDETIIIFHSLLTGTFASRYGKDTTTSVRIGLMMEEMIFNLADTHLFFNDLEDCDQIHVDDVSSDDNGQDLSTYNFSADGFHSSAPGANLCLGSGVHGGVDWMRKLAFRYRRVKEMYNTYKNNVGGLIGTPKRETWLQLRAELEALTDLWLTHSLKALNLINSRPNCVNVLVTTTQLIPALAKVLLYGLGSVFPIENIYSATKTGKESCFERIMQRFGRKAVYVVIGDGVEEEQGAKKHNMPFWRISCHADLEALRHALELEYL
Target sequence (Q15475 whole entry, looked up): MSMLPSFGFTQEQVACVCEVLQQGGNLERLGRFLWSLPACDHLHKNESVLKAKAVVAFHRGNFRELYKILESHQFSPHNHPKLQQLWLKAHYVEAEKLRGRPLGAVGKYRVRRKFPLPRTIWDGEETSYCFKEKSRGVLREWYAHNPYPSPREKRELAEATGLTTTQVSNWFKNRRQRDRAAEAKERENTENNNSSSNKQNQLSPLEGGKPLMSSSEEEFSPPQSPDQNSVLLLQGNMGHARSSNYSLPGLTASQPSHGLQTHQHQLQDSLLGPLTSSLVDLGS
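AlphaScreen luminescence read after one hour at 37 °C in darkness. Pin-transferred compounds met GST-Six1 and His-Eya2 protein (5X stock 250 nM/500 nM) plus glutathione donor and Ni-chelate acceptor beads (5X, 50 ug/mL).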
D2 agonist: agonists of human D2 dopamine receptor (beta-arrestin); P14416; DiscoveRx PathHunter D2 beta-arrestin, luminescence, 90 min; 100% = 57 uM dopamine signal; activation, % (test concentration not listed); 0.084% of 360,000 active; AID 624465; in the data active = activation above about 40%; inconclusive = about 15% to 40%; inactive = below about 15%; note: compound concentration not given in the record; the text of the record calls up to 30% inactive
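DiscoveRx PathHunter D2 beta-arrestin cells (2,100/well) attached overnight, then compound-stimulated 90 min at 37 C in HBSS/10 mM HEPES/0.1% Tween-20 buffer; beta-galactosidase complementation read by luminescence after 1 h at ambient temperature. Dopamine 57 uM final (EC100) as control.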
CtBP-E1A inh: inhibitors of CtBP/E1A interaction; 0.49% of 340,000 active; AID 651724; AlphaScreen GST-E1A/His-CtBP binding, 1536-well; active compounds read low; control for the full effect not named in the record; activity change, % (no concentration beside the values); in the data active means activity change below about -65%; inconclusive means about -30% to -65%; inactive means above about -30%; note: % is set by controls: 0 for no effect and ±100 for the full control effect
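Homogeneous bead-based format: GST-tagged E1A captured on glutathione donor beads, His-tagged CtBP on nickel acceptor beads; compounds precede bead addition by 2 h at 37 °C.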
Sfp inh: Sfp phosphopantetheinyl transferase inhibition. Q9F4F7. Biochemical Sfp PPTase activity, qHTS. Potency, µM, for the others: max response, negative = inhibition, most hits filed as inhibitors. 3.5% of 310,000 active; active = well fitted inhibition curve with a large enough effect; inconclusive = small, poorly fitted or top-dose-only effect, or another doubt; inactive = no such curve, though single readings can be large or run the other way;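 note: the enzyme is Sfp with the accession as filed and its product quenches rhodamine fluorescence; potency is the fitted concentration of half-maximal effect; 0% = enzyme reaction without inhibitor and -100% = no enzyme wells; top concentration of the series not given in the record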
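Step 1, compound plus 15 nM Sfp-PPTase, 15 min, room temperature. Step 2, add rhodamine-CoA (5 uM) and BHQ-2-YbbR (12.5 uM). Step 3, read 525/598 nm fluorescence at 0 and 30 min.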
D2 potentiator: potentiates the human D2 dopamine receptor allosterically | P14416 | DiscoveRx D2 beta-arrestin cells, luminescence, 90 min; 100% = 57 uM dopamine signal | potentiation, % (test concentration not listed) | 0.23% of 360,000 active; active = potentiation of 50% or more; inconclusive = 30% to 50%; inactive = 30% or less;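 note: compound concentration not given in the record; tested on top of an EC20 dose of dopamine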
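D2 cells co-treated with compound plus 50 nM dopamine (EC20) for 90 min at 37 deg C to detect potentiation. Beta-arrestin recruitment was read as enzyme-fragment luminescence after 1 h at ambient temperature. Full response was set by 57 uM dopamine.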
Numbers without * were called inactive; ? = inconclusive; / = no result given; [ ] = another dose, or the depositor's remark.

SMILES	TRPV1 PAM	PINK1 modulator	Six1-Eya2 inh	D2 agonist	CtBP-E1A inh	Sfp inh	D2 potentiator
CCCC1NC(=O)c2cc3ccccc3cc2-n2c1nc1cc(F)ccc1c2=O (stereo not given)	/	2.7%	-6	-3.9	0	/	2
O=C1/C(=C/c2ccccc2)SC(=S)N1C1CCS(=O)(=O)C1 (stereo not given)	-9	3.4%	7	-3.3	3	-22%	0
Cc1ccc(-n2c(SCC(=O)O)nc3sc4c(c3c2=O)C(C)CCC4)cc1 (stereo not given)	-8	-0.7%	2	-1.7	-11	-1%	-3
COc1ccc(N2C(=O)c3ccccc3S2(=O)=O)cc1	-19	3.8%	4	-1.8	8	3%	0
COc1ccccc1N(C)S(=O)(=O)c1ccc(C(=O)NCC2CCCCC2)cc1	-13	1.2%	-2	1.9	9	/	-3
COc1ccc(OCC(=O)OCCNC(=O)c2cccnc2)cc1	-9	-1.0%	13	-1.1	7	-16%	-1
COc1ccc2c(c1)C(=O)N(c1ccccc1C)C(=O)C2(C)C	0	-0.2%	9	1.4	-3	12%	-11
COc1ccc(CC(NC(C)=O)C(=O)NC2CCN(S(=O)(=O)c3ccc(NC(C)=O)cc3)CC2)cc1OC (stereo not given)	8	-1.5%	12	-3.2	-26	4%	-6
C=CCOC(=O)C1=C(C)NC(=O)NC1c1ccc(Cl)cc1 (stereo not given)	3	0.5%	4	-0.8	-25	12%	-1
O=C(CSc1ncnc2ccccc12)c1ccc2c(c1)OCCO2	-11	-0.8%	-16	1.2	11	11%	-6
CCOC(=O)c1c(C)[nH]c(C)c1C(=O)CSc1ncccn1	6	-5.1%[38.3 µM]	-3	-0.9	-1	13%	1
NS(=O)(=O)c1ccc(CNS(=O)(=O)c2cccc3nonc23)cc1	1	0.7%	8	-5.2	4	18%	-6
Cc1ccc(S(=O)(=O)N(C)C[C@@H]2OCc3ccccc3-c3c(n(C)c4ccccc34)C(=O)N([C@H](C)CO)C[C@@H]2C)cc1	/	-2.5%	-8	5.7	-7	/	16
COC(=O)c1sc(=S)n(-c2ccc(Cl)cc2)c1C	5	2.1%	-10	-0.1	-3	-2%	5
COc1cc(-c2ccc3c(=O)c4ccccc4sc3c2)cc(OC)c1OC	/	1.9%	4	1.0	-18	/	-11
O=C(NNC(=O)c1ccc2c(c1)OCO2)NC1CCCCC1	-7	-1.3%	8	-7.4	-14	18%	2
CC(C)CN(C(=O)c1ccc(N2CCCC2=O)cc1)C1CCS(=O)(=O)C1 (stereo not given)	19	-1.9%	7	2.9	1	/	-14
CCCC1(C(=O)OCC)NC(c2ccc(N(C)C)cc2)C2C(=O)N(c3ccc4c(c3)OCCO4)C(=O)C21 (stereo not given)	5	-3.3%	?	-2.7	-16	8%	-9
Oc1c(Br)cc(Br)cc1CNc1cccc2cccnc12	2	5.1%	-27	-0.1	/	40µM*	14
CN(CC(=O)Nc1ccc(F)cc1)C(=O)COC(=O)CNC(=O)c1ccc(Cl)cc1Cl	5	-0.5%	1	-3.4	-8	/	-6

By substructure: the compounds so far containing a halogen.
SMILES	TRPV1 PAM	PINK1 modulator	Six1-Eya2 inh	D2 agonist	CtBP-E1A inh	Sfp inh	D2 potentiator
CCCC1NC(=O)c2cc3ccccc3cc2-n2c1nc1cc(F)ccc1c2=O (stereo not given)	/	2.7%	-6	-3.9	0	/	2
C=CCOC(=O)C1=C(C)NC(=O)NC1c1ccc(Cl)cc1 (stereo not given)	3	0.5%	4	-0.8	-25	12%	-1
COC(=O)c1sc(=S)n(-c2ccc(Cl)cc2)c1C	5	2.1%	-10	-0.1	-3	-2%	5
Oc1c(Br)cc(Br)cc1CNc1cccc2cccnc12	2	5.1%	-27	-0.1	/	40µM*	14
CN(CC(=O)Nc1ccc(F)cc1)C(=O)COC(=O)CNC(=O)c1ccc(Cl)cc1Cl	5	-0.5%	1	-3.4	-8	/	-6

An excerpt from above in order of formula weight, falling:
SMILES	TRPV1 PAM	PINK1 modulator	Six1-Eya2 inh	D2 agonist	CtBP-E1A inh	Sfp inh	D2 potentiator
CN(CC(=O)Nc1ccc(F)cc1)C(=O)COC(=O)CNC(=O)c1ccc(Cl)cc1Cl	5	-0.5%	1	-3.4	-8	/	-6
CCCC1NC(=O)c2cc3ccccc3cc2-n2c1nc1cc(F)ccc1c2=O (stereo not given)	/	2.7%	-6	-3.9	0	/	2
O=C1/C(=C/c2ccccc2)SC(=S)N1C1CCS(=O)(=O)C1 (stereo not given)	-9	3.4%	7	-3.3	3	-22%	0

Additional structures:
SMILES	TRPV1 PAM	PINK1 modulator	Six1-Eya2 inh	D2 agonist	CtBP-E1A inh	Sfp inh	D2 potentiator
Cc1cccc(-c2cnc(C(O)Cc3ccccc3)[nH]2)c1 (stereo not given)	/	4.7%	-6	-7.7	-6	/	-13
C[C@@H]1CN([C@H](C)CO)C(=O)c2cc(C#CC3CC3)cnc2O[C@H]1CN(C)S(C)(=O)=O	/	2.8%	-10	-7.8	7	/	-3
O=[N+]([O-])c1cc(S(=O)(=O)Nc2ccccc2)ccc1NCc1cccnc1	0	1.0%	1	-5.6	16	-2%	-42
CCC(C)NC(=O)CCCCCn1c(=O)[nH]c2cc(OC)c(OC)cc2c1=O (stereo not given)	0	/	-2	1.9	0	9%	-7
C=C1CCN([C@@H](C)C(=O)NCc2ccc(Cl)cc2)S(=O)(=O)c2ccccc21	-7	-0.6%	-6	-2.9	0	0%	-5
CC1(NC(=O)Nc2cc([N+](=O)[O-])ccc2O)CCS(=O)(=O)C1 (stereo not given)	7	-0.3%	-4	-7.9	2	/	-6
COC(=O)c1oc2ccc(Br)cc2c1NC(=O)c1ccccc1	-4	14%	-2	-2.0	-4	10%	-2
CCCNS(=O)(=O)c1ccc(Oc2ncc(C(F)(F)F)cc2Cl)cc1	-13	-2.8%	-8	-7.0	-2	?	-5
O=C(NCc1cccnc1)c1cccc(NS(=O)(=O)c2ccc(Br)cc2)c1	24	10%	-4	-0.7	-6	/	-4
COCCOC1CCN(C(=O)c2ccc(OC)c(OC3CCN(C(C)C)CC3)c2)CC1	0	2.0%	2	-0.6	2	14%	-10
O=C(Nc1ccc(Nc2ccccc2)cc1)C(Cl)(Cl)Cl	-7	3.4%	5	4.6	6	-25%	20
COc1ccc(OC)c(C=Nc2ccccc2-c2nc3ccccc3[nH]2)c1	1	1.9%	-5	3.8	-4	-5%	-9
O=C(CCCn1c(=O)oc2ccccc21)Nc1cccnc1	5	1.7%	-1	-3.4	-7	14%	-23
Cc1cccc(NS(=O)(=O)c2ccc(C(=O)N3CC(C)OC(C)C3)cc2)c1C (stereo not given)	-9	0.3%	-3	-1.0	1	/	-9
COc1cccc(C2=CC(=O)C[C@H](c3ccc(Cl)cc3)C2)c1	-10	2.3%	11	-2.7	4	/	-4
CS(=O)(=O)Oc1ccc2c(c1)O/C(=C\c1cccc([N+](=O)[O-])c1)C2=O	-1	0.8%	-9	-0.3	/	2%	-12
CCOC(=O)N1CCC2(CC1)CC(=O)c1c(ccc3oc(C(=O)O)c(C)c13)O2	-2	-0.1%	0	-3.8	0	21%	-10
CC[C@H]1C/C=C\Cc2ccccc2[C@@H](C(=O)C[C@@H](O)CC(C)=O)OC1=O	/	0.5%	0	-4.8	-9	/	-3
Cc1cc(C)nc(NS(=O)(=O)c2ccc(NCN3C(=O)c4ccccc4C3=O)cc2)n1	/	1.5%	0	-1.7	4	/	3
[O-][n+]1onc2c1CCc1nnccc1-2	-7	16%[38.3 µM]	0	0.2	6	9%	-3

Compound profiles, from the list above. Values in the order: TRPV1 PAM	PINK1 modulator	Six1-Eya2 inh	D2 agonist	CtBP-E1A inh	Sfp inh	D2 potentiator
Record of O=C(CCCn1c(=O)oc2ccccc21)Nc1cccnc1 → 5	1.7%	-1	-3.4	-7	14%	-23
Record of CS(=O)(=O)Oc1ccc2c(c1)O/C(=C\c1cccc([N+](=O)[O-])c1)C2=O → -1	0.8%	-9	-0.3	/	2%	-12

Next section.
SMILES	TRPV1 PAM	PINK1 modulator	Six1-Eya2 inh	D2 agonist	CtBP-E1A inh	Sfp inh	D2 potentiator
O=C(O)CCn1c(=O)n(CCC(=O)O)c(=O)n(CCC(=O)O)c1=O	0	-0.8%	0	-3.7	-19	15%	2
C=CC[C@]12C=C(OC)C(=O)C=C1O[C@@H](c1ccc3c(c1)OCO3)[C@H]2C	/	1.5%	-3	-2.1	7	/	-37
CCOC(=O)C1CCCN(c2ccc(NC(=O)c3snc4c(=O)[nH]c(C)nc34)cc2)C1 (stereo not given)	-2	?	-23	-1.6	?	12%	-2
Cc1ncoc1C(=O)N1CCCC(CCC(=O)NCc2ccccc2F)C1 (stereo not given)	9	8.5%	2	-0.4	0	19%	-2
O=[N+]([O-])c1ccc(Oc2ccc(F)cc2Br)c2ccncc12	12	1.4%	-6	0.6	-2	-26%	-8
CC(C)OC(=O)CSc1nc2cccnc2n1-c1ccc(F)cc1	1	-3.8%	7	-2.4	2	5%	-15
COc1ccc(N(CC(=O)NCCSCc2cccc(Cl)c2)S(C)(=O)=O)cc1Cl	-15	1.5%	0	-1.2	-1	5%	-18
CC(C)NC(=O)N1CCC(c2nc3ccccc3s2)CC1	-1	1.1%	0	2.1	/	11%	1
COc1cc(NC(=O)COC(=O)/C=C/c2c(C)nn(-c3ccc(F)cc3)c2Cl)cc(OC)c1	27	2.7%	0	2.2	3	-29%	0
O=C(NCC1CCCCC1)c1cc(S(=O)(=O)N2CCCCC2)ccc1Cl	-8	3.2%	7	-5.4	3	/	-10
O=C(NCCC1CCCCN1S(=O)(=O)c1cccs1)C(=O)Nc1ccccc1F (stereo not given)	5	2.2%	-9	4.8	5	/	-2
C=CCn1cccc(C(=O)Nc2ccc(OC)c(OC)c2)c1=O	6	2.7%	2	-3.4	1	21%	-7
Cc1c(CC(=O)NCCCC(=O)O)c(=O)oc2cc3occ(-c4ccccc4)c3cc12	7	0.7%	?	0.7	-28	13%	-4
CC1CCN(C(=O)CN2c3cccc4cccc(c34)S2(=O)=O)CC1	-16	-0.1%	6	-0.3	8	/	1
COC(=O)c1ccccc1NC(=O)CSc1ccccn1	4	0.0%	3	-1.4	7	-1%	0
N#CCC(=O)N/N=C1\CCCCC1C1CCCCC1 (stereo not given)	-8	6.0%	-6	3.8	8	-1%	-2
COc1ccc(C(CC(=O)NCc2ccco2)c2ccc(F)cc2)cc1 (stereo not given)	-18	/	-13	-5.6	-4	6%	-26
CCc1ccc(-c2cc(C)no2)cc1S(=O)(=O)N1CCOc2ccc(C)cc21	-1	1.5%	3	1.4	6	2%	-3

Assay outcomes as filed in PubChem.
